GLA inh pH 4.5: qHTS Assay for Inhibitors of Human alpha-Galactosidase at pH 4.5 | activity change, negative = inhibition, % at 105 µM | Alpha-galactosidase A (Homo sapiens), P06280 | purified enzyme, 4-MU-alpha-Gal fluorescence, pH 4.5 | 230,000 tested, under 10 active; inconclusive = small, poorly fitted or top-dose-only inhibition, or a rising curve; inactive = flat fitted curve, though single readings scatter; no compound was filed as active;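 note: 0% = full activity with enzyme and -100% = basal without enzyme; dose as in the result columns while the protocol names 77 µM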
Target sequence (P06280 whole entry, looked up): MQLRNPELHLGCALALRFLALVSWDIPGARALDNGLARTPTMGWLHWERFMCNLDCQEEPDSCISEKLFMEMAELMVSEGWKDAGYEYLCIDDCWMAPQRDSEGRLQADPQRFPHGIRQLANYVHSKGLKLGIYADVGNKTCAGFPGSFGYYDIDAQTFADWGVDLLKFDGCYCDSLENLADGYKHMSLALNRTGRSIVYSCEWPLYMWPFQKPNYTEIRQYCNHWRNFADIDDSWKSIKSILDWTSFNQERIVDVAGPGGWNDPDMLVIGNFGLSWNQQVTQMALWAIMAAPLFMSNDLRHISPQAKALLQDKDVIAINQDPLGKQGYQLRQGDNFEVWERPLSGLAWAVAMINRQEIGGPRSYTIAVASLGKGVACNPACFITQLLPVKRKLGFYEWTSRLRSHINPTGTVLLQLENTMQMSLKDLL
miR-21 reporter: qHTS Assay for Modulators of miRNAs and/orActivators of miR-21. HeLa miR-21 FLuc reporter, luciferase, 48 h. Potency, µM (titrated, usually from 38.3 µM), without a hit: at the top dose reporter change, positive = more light. 340,000 tested, under 10 active; active = well fitted rising curve with a large enough effect; inconclusive = small, poorly fitted or top-dose-only effect; inactive = no such curve, though single readings can be large or run the other way;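 note: % of control where 0% means no effect; miR-21 action dims this reporter so a rising signal means less miR-21 action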
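HeLa miR-21-FLuc reporter line, endogenous miR-21; 2000 cells/well in DMEM/10% FBS; compound titration up to ~40uM final, 48 h, 37 degree Celsius; luciferase detection reagent, 15 min lysis, CCD luminescence.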
Numbers without * were called inactive; x = not tested or not shown; & = joins results of further samples.

SMILES,GLA inh pH 4.5,miR-21 reporter
COC(=O)N[C@@H](/C=C/c1ccccc1)[C@@H](C)[N+](=O)[O-],-6,x
CCCn1c(C)nc2c(NCCCCN3CCCC3)nc(C)nc21,2,x
C[C@@H](C(=O)Nc1ccc2ccccc2c1)[C@@H]1C[C@@]1(C)[C@@H](NC(=O)Oc1ccc(F)cc1)c1ccccc1,-4,x
C=C(C(C)=O)C(O)c1ccccc1 (stereo not given),-1,x
CCCCC(C)(O)C/C=C/[C@H]1[C@H](O)CC(=O)[C@@H]1CCCCCCC(=O)O (stereo not given in full),-6,x
c1nc(NCCN2CCOCC2)c2cc(-c3ccc4c(c3)OCO4)ccc2n1,-2,x
COc1ccc(-c2oc3cc(OC)ccc3c2C(=O)c2ccc(C#N)cc2)cc1,-2,x
C=CCC(C)(O)C#Cc1ccccc1 (stereo not given),2,x
CCCCCCCCCCCCC(O)C(=O)O (stereo not given),-4,x
C[C@](N)(C(=O)O)c1ccc(-c2nn[nH]n2)cc1,-19,x
C=CC(=O)N1C(=O)c2ccccc2S1(=O)=O,6,x
O=C1OCCN1/N=C\c1ccc([N+](=O)[O-])o1,-2,x
CC(C)=CCCC1=CC[C@H](C(=O)O)[C@H](C(=O)O)C1,-2,x
Oc1ccc(O)cc1,-7&-6,x
CN[C@@H](CC(C)C)C(=O)N[C@@H]1C(=O)N[C@H](CC(N)=O)C(=O)N[C@@H]2C(=O)N[C@H]3C(=O)N[C@H](C(=O)N[C@H](C(=O)O)c4cc(O)cc(O)c4-c4cc3ccc4O)[C@H](O)c3ccc(c(Cl)c3)Oc3cc2cc(c3O[C@H]2O[C@@H](CO)[C@@H](O)[C@@H](O)[C@@H]2O[C@@H]2C[C@](C)(N)[C@H](O)[C@H](C)O2)Oc2ccc(cc2Cl)[C@@H]1O,4,x

Following part:
SMILES,GLA inh pH 4.5,miR-21 reporter
COC(=O)C(C(=O)OC)C(Cc1cc(F)cc(F)c1F)NC=O (stereo not given),5,x
CCCCCCCC/C=C\CCCCCCCC(=O)NC(C)C(=O)O (stereo not given),-21,x
Cc1ccc(C2CC(=O)Oc3c(C(C)C)ccc(C)c32)cc1 (stereo not given),-8,x
CC(C)(C)OC(=O)NCCCCC1=CC2=CC(=O)C(C)(OC(=O)c3cnc4ccccc4n3)C(=O)C2=CO1 (stereo not given),-3,x
Nc1ncnc2c1nc(Br)n2C1CC(O)C(CO)O1 (stereo not given),-5,x
COC(=O)[C@@]1(Cc2ccc(OC)cc2)[C@H]2c3cc(C(=O)N4CCCC4)n(Cc4ccsc4Br)c3C[C@H]2CN1C(=O)c1ccccc1,-4,x
CC(=O)N1CC=CC1(CC(C)C)C(=O)NCc1ccccn1 (stereo not given),2,x
CC(=O)OC1C[C@@]2(C)C(c3ccoc3)OC(=O)C3O[C@@]32[C@]2(C)C(OC(C)=O)CC3C(C)(C)C(OC(C)=O)CC(OC(C)=O)[C@@]3(C)C12 (stereo not given in full),-27,x
CCCn1c(-c2ccc(F)cc2)nc2c(NCC3CCCN3CC)nc(C)nc21 (stereo not given),-6,x
CC(=O)Oc1cc(OC(C)=O)c2c(c1)OC(c1ccc(OC(C)=O)c(OC(C)=O)c1)C(OC(C)=O)C2 (stereo not given),5&-10,x
NC(Cn1ccc(=O)c(O)c1)C(=O)O (stereo not given),2,x
CC(C)C(C)/C=C/C(C)C1CCC2C3=CCC4CC(=O)CC[C@@]4(C)C3CC[C@]21C (stereo not given in full),-8,x
COc1cccc(-c2ccc3ncnc(NC4CCNCC4)c3c2)c1,-16,x
CCCC1CC(C(=O)N[C@H](C(C)O)C2OC(SC)[C@@H](O)C(O)C2O)N(C)C1 (stereo not given in full),-13,x
CCCCCCCCCCCCCCCCCCOC[C@H](COP(=O)([O-])OCC[N+](C)(C)C)OC,-6&0,x

Other structures.
SMILES,GLA inh pH 4.5,miR-21 reporter
NC1(C(=O)O)CC(C(=O)O)C1 (stereo not given),-1&-3,x
CC(C)OC(=O)[C@@H]1C=C[C@H](C)[C@@H](CCCCOCc2ccccc2)O1,1,x
CNC(=O)Oc1ccc2c(c1)[C@@]1(C)CCN(C)[C@@H]1N2C,3&3,x
Clc1cnccn1,7,x
CCCCC[C@H](O)/C=C/[C@H]1C=CC(=O)[C@@H]1CCCCCCC(=O)O,3,x
Nc1ccn([C@@H]2CC[C@H](CO)O2)c(=O)n1,0,x
CC(C)C[C@@H](CC(=O)N[C@@H](CCCN)CC(=O)N[C@@H]1CCCC[C@H]1C(=O)N[C@H](CC(=O)N[C@@H](CCC(=O)O)CC(=O)O)Cc1c[nH]c2ccccc12)NC(=O)[C@@H]1CCCC[C@H]1N,-11,x
COCOc1ccc(OC)cc1C(=O)C1O[C@H]1c1ccc(OC)c(Br)c1 (stereo not given in full),-5,x
C=CCC(C)(Nc1ccccc1)C(=O)OCC (stereo not given),1,x
CCc1ccc(OCc2ccccc2C(=O)Nc2ccc3nc(C)cc(N)c3c2)cc1,-5,x
O=C(O)CN(CCOCCOCCN(CC(=O)O)CC(=O)O)CC(=O)O,-4,x
CC(C)C[C@@H](CC(=O)N[C@@H](CCC(=O)O)CC(=O)O)NC(=O)[C@@H]1CNCC[C@H]1NC(=O)C[C@H](CCCN)NC(=O)C[C@H](CO)NC(=O)[C@@H]1CNCC[C@H]1N,5,x
CCCC/C=C/C(NC(=O)C(C)(C)C)c1ccccc1 (stereo not given),-1,x
COc1cccc([C@@H]2Oc3ccc(Br)cc3C(=O)[C@H]2OC(=O)NCCOc2ccccc2)c1,-2,x
c1cncc(CNc2nc(-c3ccc4c(c3)OCO4)nc3ccccc23)c1,-7,x

(further entries)
SMILES,GLA inh pH 4.5,miR-21 reporter
CC(=O)OC1CC[C@@]2(C)C3CC[C@@]4(C)C(CC5O[C@@]6(CCC(C)CO6)C(C)C54)C3CC[C@@H]2C1 (stereo not given in full),6,x
CCCC/C=C/C(NC(=O)c1ccc(C(F)(F)F)cc1)c1ccccc1 (stereo not given),-10,x
O=C1C2=C(S[C@@H]3O[C@H](CO)[C@@H](O)[C@H](O)[C@H]3O2)C(=O)c2ccccc21,-3,x
COc1cccc([C@@H]2Oc3ccc(Br)cc3C(=O)[C@H]2OC(=O)NS(=O)(=O)c2ccc(C)cc2)c1,-7,x
CN(CCc1ccc(Cl)c(Cl)c1)CCN1CCCC1,1,x
O=c1cc(-c2cccc(O)c2)oc2cccc(O)c12,1,x
COC(=O)[C@@]1(Cc2ccc(OC)cc2)[C@H]2c3cc(C(=O)N4CCCC4)n(CCN4CNCC4=O)c3C[C@H]2CN1C(=O)c1ccccc1,-2,x
CC1(C)OC(=O)NC1=O,0&-4,x
CCCn1c(C)nc2c(N(CCOC)CCOC)nc(C)nc21,2,x
CC(C)C[C@@H](CC(=O)N[C@@H](CCCN)CC(=O)N[C@@H]1CCNC[C@H]1C(=O)N[C@H](CC(=O)N[C@@H](CCC(=O)O)CC(=O)O)Cc1c[nH]c2ccccc12)NC(=O)[C@@H]1CNCC[C@H]1N,-11,x
COC(=O)C1(C(C)=O)CC2=CC[C@H]3C(=O)N(c4ccccc4)C(=O)[C@H]3[C@@H]2Cc2ccccc2[C@@H]1C[N+](=O)[O-] (stereo not given in full),-1&0,x
COc1cccc([C@@H]2Oc3ccc(OC)cc3C(=O)[C@H]2OC(=O)Nc2ccc(OC(F)F)cc2)c1,-2,x
COc1ccccc1-c1ccc2ncnc(N3CCN(C)CC3)c2c1,-6,x
COC(C)C(C(=O)OCC1=CCN2CC[C@H](O)[C@@H]12)C(C)C (stereo not given in full),-7,x
COc1cccc(-c2nccc(NCc3cccc(C)c3)n2)c1,-7,x

(listing goes on)
SMILES,GLA inh pH 4.5,miR-21 reporter
CCCCC1=CC2=C(c3ccco3)C(=O)C(C)(OC(=O)c3ccc(OC)cc3)C(=O)C2=CN1C1CCCC1 (stereo not given),8,x
CCN(CC)CCn1c(-c2ccccc2)nc2c(NCc3ccccc3)nc(C)nc21,-22,x
N[C@@H](Cc1cnc[nH]1)C(=O)O,-5,x
CC1(C)OC2CC3C4CCC5=CC(=O)C=C[C@@]5(C)[C@]4(F)C(O)C[C@@]3(C)[C@]2(C(=O)CO)O1 (stereo not given in full),0,x
CC/C=C\C/C=C\C/C=C\C/C=C\C/C=C\C/C=C\CCC(=O)NC(C)C(=O)O (stereo not given),-21,x
C=CCN1C=C2C(=O)C(C)(OC(=O)c3ccco3)C(=O)C(C=C)=C2C=C1C1CC1 (stereo not given),-1,x
CC(C)C[C@H](NC(=O)N1CCCCCC1)C(=O)N[C@H](Cc1cn(C)c2ccccc12)C(=O)N[C@H](Cc1ccccn1)C(=O)O,5,x
C[C@]12CCC3c4ccc(O)cc4CCC3[C@@H]1CCC2=O (stereo not given in full),-17,x
CC(C)(C)NC(=O)[C@H]1CN(Cc2cccnc2)CCN1C[C@@H](O)C[C@@H](Cc1ccccc1)C(=O)N[C@H]1c2ccccc2C[C@H]1O,-9,x
CC(=O)OC1CC[C@]2(C)C(CC(OC(C)=O)[C@]3(C)C2CC[C@@]2(C)C(c4ccoc4)OC(=O)C4O[C@]432)C1(C)C (stereo not given in full),-4,x
CCN[C@@H]1C[C@H](C)S(=O)(=O)c2sc(S(N)(=O)=O)cc21,8,x
Cc1ccc(C2CC(=O)Oc3cc4c(cc32)OCO4)cc1 (stereo not given),-4,x
N=c1ccn2c(n1)O[C@H]1[C@@H](O)[C@@H](CO)O[C@H]12,3,x
COc1cccc(CC(=O)N2CCc3nc(COc4ccccc4)c4c(c3C2)CO[C@@H](C)C4)c1,-5,x
COc1cc(OC)c2c(c1)OC1Cc3cc(OC)c(OC)cc3C2O1 (stereo not given),0,x

Going on with the list.
SMILES,GLA inh pH 4.5,miR-21 reporter
Cc1cc(O)cc(=O)o1,12,x
COc1c2c(cc3c1C(CC(O)C(C)C)N(C)CC3)OCO2 (stereo not given),-6,x
CCCCc1nc2c(c3c1C[C@H](C)OC3)CN(C(=O)N[C@@H](C)c1ccccc1)CC2,10,x
O=C(N/N=C\c1ccccc1O)c1ccccc1O,-12,x
CNc1nc(-c2ccc(N(C)C)cc2)nc2ccccc12,-1,x
CC(=O)CC(=O)[C@@]1(O)CC[C@@H]2[C@@H]3C=C(C)C4=CC(=O)CC[C@@H]4[C@H]3CC[C@]21C,-7,x
O=C(Nc1cc(NC(=O)c2ccccc2)c(C(=O)O)cc1C(=O)O)c1ccccc1,-8,x
CCCn1c(C)nc2c(N3CCN(C)CC3)nc(C)nc21,2,x
COc1c(N2CCNC(C)C2)c(F)cc2c(=O)c(C(=O)O)cn(C3CC3)c12 (stereo not given),8,x
CCOc1ccc(/C=C/C(=O)c2cccs2)cc1,-5,x
O=C(NC[C@@H](O)CO)c1c(I)c(C(=O)NC[C@@H](O)CO)c(I)c(N(CCO)C(=O)CO)c1I,-2,x
Cc1cnc(CNc2ncnc3ccc(-c4ccccc4C#N)cc23)cn1,-6,x
COC(=O)N1C(c2ccccc2)=Cc2ccccc2C1C1(C(=O)OC)CCCC1=O (stereo not given),-3&7,x
CC1(C)O[C@H]2[C@@H](O1)[C@@H](C(=O)Nc1ccccc1C(F)(F)F)O[C@@H]1OC(C)(C)O[C@@H]12,x,-17%
CCCCN(CCCC)C(=O)c1c[nH]c2ccc(S(=O)(=O)Nc3cccc(Cl)c3C)cc2c1=O,x,11%

Two entries drawn at random from those above:
SMILES,GLA inh pH 4.5,miR-21 reporter
Cc1cc(O)cc(=O)o1,12,x
CNc1nc(-c2ccc(N(C)C)cc2)nc2ccccc12,-1,x

Following part.
SMILES,GLA inh pH 4.5,miR-21 reporter
Cc1ccccc1-c1nc(CS(=O)(=O)CC(=O)NCCCc2ccccc2)c(C)o1,x,14%
COC(=O)CN1C(=O)C(C)(C)c2cc(S(=O)(=O)NCc3ccc(Cl)cc3)ccc21,x,-4%
Cc1ccc(C)c(NC(=O)CCc2nc3cccnc3n2Cc2cccs2)c1,x,2%
CCOC(=O)c1ccc(NC(=O)CC2Nc3cc(C)c(C)cc3NC2=O)cc1 (stereo not given),x,-9%
Cc1nc2nncn2c(Nc2ccccc2)c1C,x,1%
COc1ccc(C2=NN(S(C)(=O)=O)C(c3cn(-c4ccccc4)nc3-c3cccs3)C2)cc1 (stereo not given),x,-14%
Cc1ccc([N+](=O)[O-])cc1S(=O)(=O)N1CCn2cccc2C1c1ccccc1 (stereo not given),x,-2%
CC(C)OCCCNC(=O)CCCn1c(SCC(N)=O)nc2c(sc3ccccc32)c1=O,x,0%
CC1(C)Cc2c(sc3nc(=S)[nH]c(N)c23)CO1,x,-1%
CCc1ccccc1Nc1cc(C(=O)NC(C)c2ccccc2)c2ccccc2n1 (stereo not given),x,16%
Cc1cccc(CNC(=O)CN2C(=O)C3CCCCN3c3ccc(C(=O)N4CCCC4)cc32)c1 (stereo not given),x,0%
Cc1ccc(Oc2c(C(F)(F)F)oc3c(CN4CCCCC4C)c(O)ccc3c2=O)cc1 (stereo not given),x,-1%
CCC(CC)C(=O)Nc1cc(-c2ccccc2F)nn1-c1ccccc1,x,0%
COc1ccc(CNC(=O)Cc2c(C)c3cc4c(C)coc4c(C)c3oc2=O)cc1,x,4%
Fc1ccccc1-c1nc(N2CCN(c3cccc(Cl)c3)CC2)c2ccccc2n1,x,9%

A portion of the library, so the mix of outcomes need not match the whole.
